# BmaI1: BmaI1 acyl-homoserine lactone synthase inhibition – biochemical, fluorescence intensity, with counterscreen (AID 720554); BmaI1 enzyme assay, fluorescence intensity; hits give high values; test concentration not given here; a few actives read low; strong numbers were not always called active; inhibition, %; actives 0.4% (n = 12,000);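 active means both replicates within 2 robust z-scores of the inhibited control and a quiet counterscreen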;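 further: 0% = uninhibited enzyme and 100% = inhibited control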
# BmaI1 counterscreen: further read-out of BmaI1, marked with its call; inhibition, %; measured here: counterscreen; design of the counterscreen not given here;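 first of two replicates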
# Starred values were filed as active, the others as inactive. Some of the compounds tested (hit frequency here may not be typical).
# Fields – BmaI1 counterscreen	BmaI1
1: CCn1c(SCc2cc(=O)n3cc(C)ccc3n2)nc2ccccc21
  8	16
2: O=C(O)c1cc2c(cc1NC(=O)C1CCCC1)OCCCO2
  -2	14
3: CC(Nc1ccccc1)C(=O)N1CCc2ccccc21 (centres undefined)
  2	-1
4: Cc1csc(=O)n1CCC(=O)OCC(=O)NC1CCS(=O)(=O)C1 (centres undefined)
  10	14
5: CN1CCCN(C(=O)C2CCCCN2S(=O)(=O)c2ccccc2)c2nc3ccccc3nc21 (centres undefined)
  2	18
6: COc1ccc(N2C(=O)/C(=C\c3ccco3)N=C2SCC(=O)c2cc(C)n(C)c2C)cc1Cl
  12	13
7: c1csc(CNc2nc(-c3cccs3)nc3ccccc23)c1
  12	14
8: Cc1cc(Oc2ccc3c(c2)OCO3)nc2ccccc12
  14	22
9: CN1CCN(C2=Nc3cc(Cl)ccc3Nc3ccccc32)CC1
  2	-23
10: C(=N\c1sc2c(c1-c1nc3ccccc3s1)CCCC2)/c1ccco1
  6	8
11: O=C(Oc1ccc(-c2nnco2)cc1)c1oc2ccccc2c1COc1ccccc1
  18	24
12: O=C(NC1CCS(=O)(=O)C1)C1CCCC1 (centres undefined)
  0	4
13: CC1CC(C)CN(S(=O)(=O)c2cccc(C(=O)Nc3ncn[nH]3)c2)C1 (centres undefined)
  15	18
14: Cc1cc(C)n(-c2ccc(C(=O)NCCc3ccc(S(N)(=O)=O)cc3)cc2)n1
  12	8
15: Cc1cc(C)n2nc(SCc3nc4ccc(Cl)cc4n3CCO)nc2n1
  -14	-4

# Fields – BmaI1 counterscreen	BmaI1
16: O=C1N=c2ccccc2=C1c1sc(N2CCCCC2)nc1O
  8.5*	92*
17: O=S(=O)(c1ccccc1C(F)(F)F)N1CCNCC1
  6	-5
18: Nc1cc(N)nc(SCC(=O)NC(=O)NC2CCCC2)n1
  14	8
19: C#CC(CC)(CC)NC(=O)c1oc2ccccc2c1CSc1nc(C)cs1
  8	12
20: O=C(Nc1cccc2cccnc12)C1CC(=O)N(C2CCCC2)C1 (centres undefined)
  8	12
21: Cc1cc(C(=O)OCC(=O)NCc2ccco2)c(C)o1
  8	3
22: CC(C)CC(C(=O)c1c(N)n(C)c(=O)n(C)c1=O)N1C(=O)c2ccccc2C1=O (centres undefined)
  10	22
23: O=C(Cn1c(CN2CCOCC2)nc2sc3c(c2c1=O)CCC3)N1CCc2ccccc21
  3	4
24: CC(C)(C)C1CCc2nc(NC(=O)Cc3cn4ccsc4n3)sc2C1 (centres undefined)
  6	20
25: CCN(CC)C(=O)CSc1ccc2c(c1)OCCO2
  8	19
26: CC(N=C1NS(=O)(=O)c2ccccc21)c1ccc(F)cc1 (centres undefined)
  10	16
27: CCC(=O)Nc1ccc(C(=O)CN2C(=O)NC3(CCCc4ccccc43)C2=O)cc1 (centres undefined)
  16	14
28: COC(=O)c1ccc(C(c2cc3c(cc2O)OCO3)N2CCN(c3ccccc3)CC2)cc1 (centres undefined)
  24*	83*
29: COC(=O)c1cccc(COC(=O)c2cccnc2SC)c1
  5	18
30: O=C(O)CN1CCSC1=O
  6	10

# Fields – BmaI1 counterscreen	BmaI1
31: COc1ccc(CNCC(O)COCc2cccs2)cc1 (centres undefined)
  10	9
32: COc1ccc(OC)c(NC(=O)c2ccc(N3C(=O)CCC3=O)cc2)c1
  12	21
33: N=C1/C(=C2\Nc3ccccc3S2)CC(=O)N1C1CC1
  58	-24
34: Oc1ccc(O)c(CN2CCCCCC2)c1
  28	74
35: CN(C)CCCNc1nnnn1-c1ccccc1
  6	11
36: O=C(O)/C=C/c1ccc(N2CCCCCC2)cc1
  0	44
37: CSc1cccc(NC(=O)COC(=O)c2ccccc2)c1
  10	15
38: Nc1ncnc2c1ncn2[C@@H]1O[C@H](CO)[C@@H](O)[C@@H]1O
  8	-4
39: CC(C)(C)C(=O)COC(=O)c1ccc(NS(=O)(=O)c2cccs2)cc1O
  -2	12
40: CCN(C(=O)NS(=O)(=O)c1ccc(C)cc1)C1CCCCC1
  12	14
41: COc1ccc(Cl)cc1NC(=O)CN(C)CN1C(=O)C2CC=CCC2C1=O (centres undefined)
  5	8
42: C=CCN(C(=O)CSc1nc2ccccc2o1)c1nc2c(s1)CCCC2
  10	18
43: O=C(CSc1nnc(CN2CCCC2)n1-c1ccccc1)c1ccc2c(c1)OCO2
  4	52
44: COc1ccc(CN(C)CC(=O)c2c[nH]c3ccccc23)c(OC)c1
  6	9
45: NC(=O)N1c2ccccc2CC(=O)c2ccccc21
  9	2

# Fields – BmaI1 counterscreen	BmaI1
46: CCOC(=O)C1=C(CSc2ccc(C)cc2C)NC(=O)NC1C (centres undefined)
  -1	6
47: Cc1cc(C)n2nc(SC/C(O)=C(\C#N)c3nc4ccccc4[nH]3)nc2n1
  2	18
48: CC(C(=O)Nc1ccccc1)N(c1nccs1)S(=O)(=O)c1ccccc1 (centres undefined)
  8	8
49: CN(C)/C=N/c1sc2c(c1C#N)CCCC2
  16	23
50: Cc1nn(C2CCS(=O)(=O)C2)c(Cl)c1/C=C/C(=O)OCn1nnc2ccccc2c1=O (centres undefined)
  12	18
51: CCN(c1ccccc1)S(=O)(=O)c1ccc(Oc2ccc(-n3ccnc3)cc2)nc1
  5	8
52: Cc1ccc(C)c(-n2c(=O)c3ccccc3n3c(SCc4ccc(C#N)cc4)nnc23)c1
  6	6
53: O=C(CNc1ccccc1N1CCCCC1)Nc1ccc(F)cc1Cl
  4	12
54: COC(=O)[C@H](C)NC(=O)c1ccc(S(=O)(=O)N2CCOCC2)cc1
  2	1
55: CC(=O)Nc1ccc(C(=O)OCC(=O)N(C)C2CCS(=O)(=O)C2)cc1 (centres undefined)
  2	25
56: CCn1nc(C(=O)OCCCCN2C(=O)c3ccccc3C2=O)c2ccccc2c1=O
  9	10
57: COc1ccc(CNC(=O)CSc2nc3cc(Cl)ccc3o2)cc1OC
  4	12
58: CC(NC(=O)C12CC3CC(CC(O)(C3)C1)C2)c1ccccc1 (centres undefined)
  8	11
59: COc1ccc2c(C)cc(N3CCC(C(N)=O)CC3)nc2c1
  10	10
60: COC(=O)c1ccc(-n2c(C)cc(/C=N/N(C)C)c2C)cc1
  2	23

# Fields – BmaI1 counterscreen	BmaI1
61: Cc1ccc(N2C(=O)/C(=C/N(C)C)c3ccccc3C2=O)cc1
  -3	3
62: NS(=O)(=O)c1ccc(NC(=O)Cc2ccccc2F)cc1
  -1	7
63: CN1/C(=C2\C=NN(c3ccccc3)P2(=O)N2CCCC2)C(C)(C)c2ccccc21 (centres undefined)
  2	13
64: CCOC(=O)c1sc2nc(CNC(C)C)nc(NC(C)C)c2c1C
  1	2
65: CC(=O)N1CCN(c2ccc(Oc3ccc(C(F)(F)F)cn3)cc2)CC1
  -2	14
66: COC(=O)c1ccc(C2C3=C(Nc4nnnn42)C(C2CCCCC2)CCC3)cc1 (centres undefined)
  -20	4
67: CCn1c(SCc2nnc(-c3ccccc3)o2)nnc1-c1ccccc1
  0	6
68: Cn1cnnc1SCC(=O)N(CC1CCCO1)c1nc(-c2ccc(Br)cc2)cs1 (centres undefined)
  14	14
69: CCN(c1ccc(NC(=O)COC(=O)c2ccc(N(C)C)cc2)cc1)C(C)C
  -26	22
70: CCOC(=O)c1oc2ccc(Br)cc2c1CSc1nnc(N)s1
  8	6
71: COC(=O)c1cc(COC(=O)c2ccc(Cl)cc2)oc1C
  2	6
72: O=C(OCN1C(=O)c2ccccc2C1=O)c1ccc(-n2cnnn2)cc1
  10	13
73: CCn1c(COC(=O)CCc2ccc(OC)c(OC)c2)nc2cc(S(=O)(=O)N(C)C)ccc21
  2	16
74: Cc1csc(=O)n1CCCC(=O)O
  2	7
75: O=C(Oc1ccc2c(c1)OCO2)c1ccco1
  8	72

# Fields – BmaI1 counterscreen	BmaI1
76: CCOc1cc(N2CCOCC2)c(OCC)cc1NC(=O)CCNS(=O)(=O)c1cc(C)ccc1C
  -13	5
77: O=C(Nc1cccc(-n2cnnn2)c1)C1CCCN1C(=O)c1cccs1 (centres undefined)
  4	6
78: CC(C)(C)OC(=O)N/N=C1\CCCCc2ccccc21
  -2	-4
79: CN(C)C(=O)COC(=O)c1cccc(CN2C(=O)c3ccccc3C2=O)c1
  6	10
80: CC(Sc1nc2cc(Cl)ccc2c(=O)n1Cc1ccco1)C(=O)N1CCc2ccccc2C1 (centres undefined)
  15	10
81: CS(=O)(=O)c1ccccc1C(=O)N1CCN(Cc2ccccc2)CC1
  2	10
82: Cc1noc(C)c1COC(=O)/C(=C/c1cccs1)c1cccs1
  13	24
83: Cc1cc(C)n2c(nc(=O)c3ccccc32)c1C#N
  6	20
84: Cc1ccc(Cn2nccc2NC(=O)c2cccnc2Sc2ccccc2)o1
  5	4
85: COc1ccc(C2=CSC3=NS(=O)(=O)CCN23)cc1Cl
  18	22
86: CCN(CC)c1nc(N)c2c(N)nc3c(c2c1C#N)CC(c1ccccc1)O3 (centres undefined)
  12	24
87: Cc1ccc(-c2csc3nc(CNCCN(C)C)[nH]c(=O)c23)cc1
  -3	8
88: CCOC(=O)c1c(NC(=O)COC(=O)C2CCC(=O)N2)sc2c1CCCC2 (centres undefined)
  -1	10
89: Cc1cc(=O)c(C(=O)Nc2ccc(N3CCOCC3)cc2N2CCOCC2)nn1-c1ccc(Cl)cc1
  4	8
90: CC1CCCC(C)N1C(=O)COC(=O)c1c2c(nc3ccccc13)CCCC2 (centres undefined)
  -6	2

# Arranged by formula weight (ascending): three of the compounds above.
# Fields – BmaI1 counterscreen	BmaI1
81: CS(=O)(=O)c1ccccc1C(=O)N1CCN(Cc2ccccc2)CC1
  2	10
90: CC1CCCC(C)N1C(=O)COC(=O)c1c2c(nc3ccccc13)CCCC2 (centres undefined)
  -6	2
80: CC(Sc1nc2cc(Cl)ccc2c(=O)n1Cc1ccco1)C(=O)N1CCc2ccccc2C1 (centres undefined)
  15	10

# (listing goes on)
# Fields – BmaI1 counterscreen	BmaI1
91: Cn1c(Cc2cccs2)nnc1SCc1ccc(C(=O)Nc2ccccc2)cc1
  2	6
92: COc1ccc(N2C(=O)C3SC(N)=C(C#N)C(c4ccco4)C3C2=O)cc1 (centres undefined)
  4	36
93: Cn1c(SC(C#N)Cc2ccccc2)nnc1-c1ccc(C(C)(C)C)cc1 (centres undefined)
  4	22
94: CCN(c1ccccc1)S(=O)(=O)c1ccc(C(=O)NCCCN2CCCC2=O)cc1
  4	-2
95: COC(=O)C(O)(C1=C(N2CCOCC2)/C(=C\c2ccccc2)CC1)C(F)(F)F (centres undefined)
  4	10
96: Cc1c(C(=O)OCC(=O)c2ccc(Cl)s2)sc2nc3n(c(=O)c12)CCC3
  4	14
97: CN(C)S(=O)(=O)c1ccc(C(=O)OCC2COC(C)(C)O2)cc1 (centres undefined)
  8	10
98: CNC(C)c1ccccc1 (centres undefined)
  -4	-2
99: OC(CCN1CCCC1)(c1ccccc1)C1CCCCC1 (centres undefined)
  -4	-4
100: C=CCN1C(=O)/C(=C/c2c(N3CCNC(=O)C3CC(=O)OCC)nc3ccccn3c2=O)SC1=S (centres undefined)
  0	10

# In the list so far, these contain a thiophene ring, fused or not:
# Fields – BmaI1 counterscreen	BmaI1
7: c1csc(CNc2nc(-c3cccs3)nc3ccccc23)c1
  12	14
10: C(=N\c1sc2c(c1-c1nc3ccccc3s1)CCCC2)/c1ccco1
  6	8
23: O=C(Cn1c(CN2CCOCC2)nc2sc3c(c2c1=O)CCC3)N1CCc2ccccc21
  3	4
31: COc1ccc(CNCC(O)COCc2cccs2)cc1 (centres undefined)
  10	9
39: CC(C)(C)C(=O)COC(=O)c1ccc(NS(=O)(=O)c2cccs2)cc1O
  -2	12
49: CN(C)/C=N/c1sc2c(c1C#N)CCCC2
  16	23
64: CCOC(=O)c1sc2nc(CNC(C)C)nc(NC(C)C)c2c1C
  1	2
77: O=C(Nc1cccc(-n2cnnn2)c1)C1CCCN1C(=O)c1cccs1 (centres undefined)
  4	6
82: Cc1noc(C)c1COC(=O)/C(=C/c1cccs1)c1cccs1
  13	24
87: Cc1ccc(-c2csc3nc(CNCCN(C)C)[nH]c(=O)c23)cc1
  -3	8
88: CCOC(=O)c1c(NC(=O)COC(=O)C2CCC(=O)N2)sc2c1CCCC2 (centres undefined)
  -1	10
91: Cn1c(Cc2cccs2)nnc1SCc1ccc(C(=O)Nc2ccccc2)cc1
  2	6
96: Cc1c(C(=O)OCC(=O)c2ccc(Cl)s2)sc2nc3n(c(=O)c12)CCC3
  4	14

# Screening data (PubChem)
